# Sa helicase inh: S. aureus DNA helicase inhibition. purified S. aureus helicase, fluorescence unwinding assay; about half of the hits fall short of the stated cut. 120,000 tested, 0.05% active. inhibition, %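 (tested at about 80 µM)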. AID 485395;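 active = both duplicates at 50% or more, or one of them with a favoured structure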;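 note: 0% = mean of negative control wells and 100% = mean of positive control wells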
# MgrA DNA FP: S. aureus MgrA-DNA binding modulation; fluorescence polarization; inhibition, %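 (about 10 µg/mL by stock and volumes)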; 84,000 tested, 0.13% active; AID 602314;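 active = above 50% in either of two replicates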;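 note: 0% = protein plus DNA without compound and 100% = DNA alone without protein; higher means less MgrA bound to DNA so lower polarization; one replicate is shown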
# * hit, by the source's call; . = not tested or not shown; & = joins results of further samples. Some of the compounds tested; count on the stated rates, not on these rows.
compound,Sa helicase inh,MgrA DNA FP
N#C/C(=C\c1cccnc1)C(=O)Nc1ccccc1,-5,6.9
CCOC(=O)c1ccc(-c2ccc(/C=C(\C#N)C(=O)NC(C)(C)C)o2)cc1,-80,.
CCOC(=O)NNC(=S)Nc1ccccc1OC,.,0.2
Cn1cc(Br)c(=O)n(C)c1=O,-38,.
CCN(CC)C(=O)Cc1ccc(Br)cc1,6,-1.1
O=C1c2ccc(-c3nc4ccc(Br)cc4c(=O)o3)cc2C(=O)N1C1CCCCC1,13,2.5
N=C(N=C(N)N)N1CCCc2ccccc21,8,0.4
CN(N)c1cc(=O)n(C)c(=O)[nH]1,-3,3.7
O=c1cc(-c2cccs2)oc2ccc(Cl)cc12,-24,-0.3
COC(OC)c1ccc(C#N)c(SCC(=O)c2ccccc2)n1,.,-0.1
COc1ccc(C(C)=O)c(NC(C)=O)c1,.,-1.4
O=C(NCc1ccccc1)c1cc(-c2ccco2)on1,11,-2.6
CCCn1c(N)c(C(=O)COC(=O)c2cc(-c3ccc(C)o3)nc3ccccc23)c(=O)[nH]c1=O,-5,.
O=C(NCCc1ccccc1)c1ccc2c(c1)sc1nc(-c3ccccc3)cn12,6,1.6
c1coc(CNc2nc(N3CCCCC3)nc(N3CCOCC3)n2)c1,.,-2.1
Cc1[nH]ncc1-c1ccccc1,.,-1.4
CC1C2CC(CC1(C)C)N(C(=O)c1ccc(N3C(=O)c4ccccc4C3=O)cc1)C2 (stereo not drawn),13,-1.4
O=C(c1ccccc1)C1CCN(C(=O)CS(=O)(=O)c2ccc(Cl)cc2)CC1,.,4.2
COC(=O)CSc1nnc(-c2c[nH]c3ccccc23)n1-c1ccc(F)cc1,11,.
CC(=O)NS(=O)(=O)c1ccc(NC(=O)c2ccccc2C(=O)O)cc1,36,.

# Complete entries, looked up by structure. Order of screens: Sa helicase inh	MgrA DNA FP
# COC(OC)c1ccc(C#N)c(SCC(=O)c2ccccc2)n1 is listed with .	-0.1
# COC(=O)CSc1nnc(-c2c[nH]c3ccccc23)n1-c1ccc(F)cc1 is listed with 11	.
# N=C(N=C(N)N)N1CCCc2ccccc21 is listed with 8	0.4
# Cn1cc(Br)c(=O)n(C)c1=O is listed with -38	.
# CN(N)c1cc(=O)n(C)c(=O)[nH]1 is listed with -3	3.7

# Going on with the list:
compound,Sa helicase inh,MgrA DNA FP
CC(C)N/C=C1/C(=O)c2sccc2N(Cc2ccccc2)S1(=O)=O,-16,.
CCOc1ccc(NC(=O)C2C3C=CC4(CN(C(C(=O)OC)C(C)C)C(=O)C24)O3)cc1 (stereo not drawn),8,.
O=C(O)c1ccc(-c2cc3ccccc3oc2=O)cc1,3,.
O=c1cc(O)c2c(=O)n(Cc3ccccc3)c3ccccc3c2o1,.,-1.1
C=CCNC(=O)C1(O)c2ccccc2NC(=O)N1c1ccccc1 (stereo not drawn),10,0.4
O=C(Nc1cccc(-c2noc(-c3ccccc3)n2)c1)c1cccs1,16,-1.0
C1Cc2nnc3c4c(nnc(c24)C1)CCC3,10,-1.4
O=C1CN(S(=O)(=O)c2ccccc2)CC(=O)N1CCc1ccccc1,-5,.
Cc1ccc(-c2noc(CCC(=O)N3CCCc4ccccc43)n2)cc1,10,.
CC1CCN(C(c2nnnn2Cc2ccccc2)C(C)C)CC1 (stereo not drawn),0,18
COC(=O)CN1C(=O)C(=Cc2ccc(N(C)C)cc2)SC1=S,-100,19
COC(=O)c1ccc(NC(=O)CSc2nccn2C)cc1,-5,1.5
O=c1[nH]c2ccccc2n1CN1CCc2ccccc2C1,5,.
COC(=O)c1cnn(C(=O)c2ccccc2Br)c1N,8,-0.2
Cn1c(=O)n(C)c2cc(CN3C(=O)c4ccccc4C3=O)ccc21,19,-6.8
Cc1nc(SCC(N)=O)c2c(=O)n(C)c(=O)n(C)c2n1,3,.
CC(=O)O/N=C(/N)c1cnn2c(C(F)(F)F)cc(C(F)(F)F)nc12,-2,.
O=C(NC12CC3CC(CC(C3)C1)C2)C1CCCN1S(=O)(=O)c1ccccc1 (stereo not drawn),16,-0.6
CC(=O)NC1=NC(=O)/C(=C\c2ccc(Cl)cc2)S1,-1,1.8
Nc1[nH]nc(Nc2ccccc2)c1S(=O)(=O)c1ccccc1,37,.

# (more compounds)
compound,Sa helicase inh,MgrA DNA FP
N#CCCSc1ccc(F)cc1,8,.
CCOC(=O)c1cc(C#N)c(SCc2ccc(C#N)cc2)nc1C,14,.
CC(NC(=O)CSc1nc2c(c(=O)n1C)C1=C(CCCC1)C2)c1ccccc1 (stereo not drawn),4,-1.6
Cc1cc(=O)[nH]c(SCC(=O)Nc2ccc(N3CCOCC3)c(Cl)c2)n1,6,-6.4
O=S(=O)(Nc1n[nH]c2cccc(Cl)c12)c1ccc(Cl)cc1,.,0.0
CCCN1CCN(c2ccc(S(C)(=O)=O)cc2S(C)(=O)=O)CC1,-7,.
CCN1C(=O)/C(=C2\SC(=S)N(NC(=O)c3ccccc3)C2=O)c2ccccc21,1,1.6
Cc1nc(NS(=O)(=O)c2ccccc2)sc1NC(=O)OCCOc1nc(N(C)C)nc(N(C)C)n1,14,.
CCOC(=O)COc1ccc2c(c1)C(=O)CC(C)(c1cccnc1)O2 (stereo not drawn),3,.
N#CC1=C(N)Oc2nc[nH]c(=O)c2C1c1ccccc1Cl (stereo not drawn),-2,.
COC(=O)c1sccc1NC(=O)CSCC(=O)O,.,2.9
NNc1nc2ccccc2o1,12,-1.4
Cc1ccc2onc(CNC(=O)N3CCN(C)CC3)c2c1,-19,.
COc1ccc(-n2ncc3c(NCCc4ccccc4)ncnc32)cc1,8,3.4
O=C(O)C(Cc1ccccc1)P(=O)(O)CN1CCOCC1 (stereo not drawn),-26,.
CCOC(=O)C1=C(O)c2ccccc2C1=O,4,2.6
COc1ccccc1C(=O)N1CCNCC1,14,2.1
CCc1cc(=O)oc2cc3occ(C(C)(C)C)c3cc12,4,-0.8
Cc1ccc(Cl)cc1NCN1C(=O)/C(=C/c2ccc(Br)cc2)NC1=S,5,-0.1
Cc1csc(=NCC(=O)NCc2ccccc2)n1CC(=O)NCc1ccccc1,-6,.

# (continued)
Molecule	Sa helicase inh	MgrA DNA FP
CCn1cc2nc(SCC(=O)NC3CCCCC3)n(Cc3ccc(OC)cc3)c(=O)c2n1	15	.
O=C(COC(=O)c1ccc(Cl)nc1)NCc1ccccc1Cl	24	.
CN(C(=O)COc1ccccc1)C1CCS(=O)(=O)C1 (stereo not drawn)	19	-1.0
CCCN(CCC)c1sc(S(C)(=O)=O)nc1S(=O)(=O)c1ccc(C)cc1	13	.
CC(=O)N1CCc2cc(S(=O)(=O)NCCC(=O)N3CCc4ccccc43)ccc21	9	0.1
Cc1ccn2c(-c3nnco3)c(C)nc2c1	.	-0.9
CC1(C)C2CCC1(CS(=O)(=O)Nc1ccc(Cl)cc1)C(=O)C2 (stereo not drawn)	-17	.
COc1ccc(C2C3=C(CC(C)(C)CC3=O)Nc3ccccc3N2C(=O)Cc2ccccc2)cc1OC (stereo not drawn)	.	0.7
CC1CCN(Cc2ccc(NC(=O)Nc3cccs3)cc2)CC1	4	1.7
CN(C)c1ccc(/C=C(\NC(=O)c2ccccc2)C(=O)NCc2ccco2)cc1	8	-2.1
CCOC(=O)c1[nH]c2ccc(OC)cc2c1N=C(C)N(C)C	7	4.2
CN1CCN(C(=O)C2=C(N)C(C(=O)Nc3ccccc3Br)SC2=NCc2ccccc2)CC1 (stereo not drawn)	-7	.
Cc1nn(CCCC(=O)NC2CCCc3ccccc32)c(=O)c2cc3sccc3n12 (stereo not drawn)	2	.
CC1=CCC2(CO)COC(c3ccccc3O)C1C2 (stereo not drawn)	3	17
C=CCNC(=O)c1ccccc1OCc1ccccc1	2	-0.1
COc1ccc(-c2cc(C(F)(F)F)n3nc(C)cc3n2)cc1	.	-0.9
COC(=O)c1sccc1NNS(=O)(=O)c1ccccc1	6	.
C=CCNc1sc(C(=O)OC)c(N)c1C(=O)OC	.	-0.1
CCN(CC)CC(O)Cn1c(=O)n(CC(O)CN(CC)CC)c(=O)n(CC(O)CN(CC)CC)c1=O (stereo not drawn)	-26	.
O=C(Cc1n[nH]c(=O)c2ccccc12)OCCCn1c(=O)[nH]c2ccccc21	-15	.
O=C(Nc1ccc(-c2csnn2)cc1)C1CC1	.	-0.5
N#CCc1ccc(NC(=O)CC(CC(=O)O)c2ccccc2)cc1 (stereo not drawn)	15	.
CC(=O)NC(=S)Nc1ccc(S(=O)(=O)N2CCOCC2)cc1	6	0.0
CCN(CC)C(=O)Cn1cc(/C=C(\C#N)C(N)=O)c2ccccc21	4	0.3
CC(C)(C)C1CCc2nc(N)c3c(=O)oc4ccccc4c3c2C1 (stereo not drawn)	4	1.1

# The list goes on:
Molecule	Sa helicase inh	MgrA DNA FP
CNC(=S)N(Cc1ccc(OC)cc1OC)c1ccc(C(C)(C)C)cc1	1	-0.8
Cc1cc(=O)[nH]c(/N=C(\N)Nc2ccccc2)n1	6	1.9
CN1CCN(c2ccccc2NC(=O)c2ccc(Br)o2)CC1	9	0.5
Cc1ccccc1Cn1c(-c2cncs2)nc2ccccc21	-7	-2.0
CC(C)CSc1nc(-c2ccco2)c(C#N)c(=O)[nH]1	-6	.
Cn1c(N)c(C(=O)NCc2ccccc2)c2nc3ccccc3nc21	5	4.0
CSCCC(C(=O)Nc1ccc2c(c1)OCCO2)N1Cc2ccccc2C1=O (stereo not drawn)	12	.
CSc1ccc(-c2nnc(NC(=O)/C=C/c3cccs3)o2)cc1	9	.
CSc1ccccc1NC1=NS(=O)(=O)c2ccccc21	4	0.2
Brc1cnc(N2CCCC2)nc1	3	-0.3
Cc1cc(C(=O)CSc2nnc(-c3ccco3)n2C)c(C)n1C1CC1	6	.
CC1C(=O)Nc2ccccc2N1C(=O)c1ccccc1 (stereo not drawn)	.	0.2
CC1Cc2cc(CSC(=N)N)ccc2O1 (stereo not drawn)	14	-0.9
O=C(NNc1ccccn1)Nc1ccc(Cl)cc1	-3	7.2
O=C(Nn1c(=S)[nH]c2ccccc2c1=O)c1ccco1	16	.
O=C(COC(=O)Cc1n[nH]c(=O)c2ccccc12)NCC1CCCO1 (stereo not drawn)	8	.
CCc1ccc(C2Nc3ccccc3C(=O)N2c2ccc(N(C)C)cc2)cc1 (stereo not drawn)	-2	1.6
Cc1ccc(C(=O)Nc2ccc(C(=O)N3CCCCC3)cc2)o1	-8	0.4
COc1ccccc1CNCc1ccccc1	11	1.5
CCN(CC)CCC1S(=O)(=O)C(C(=O)OC)C(c2ccc(OC)cc2)C(C(=O)OC)S1(=O)=O (stereo not drawn)	-12	.
CC1(n2c(=O)n(Cc3ccccc3)c3ccccc32)CSC1	2	.
Cc1cc(C(=O)CSc2nncn2C)c(C)n1-c1ncn[nH]1	-3	.
CNC(=O)NC(=O)C(Sc1nnnn1C1CC1)c1ccccc1 (stereo not drawn)	-1	.
O=C(CSc1nc(=O)n2ccccc2n1)NCc1ccccc1	6	.
O=C(C1CC1)N1CCN(c2ncccn2)CC1	-5	1.4

# 4 of the compounds above, as labelled records:
COC(=O)c1cnn(C(=O)c2ccccc2Br)c1N
- Sa helicase inh: 8
- MgrA DNA FP: -0.2

Cn1c(=O)n(C)c2cc(CN3C(=O)c4ccccc4C3=O)ccc21
- Sa helicase inh: 19
- MgrA DNA FP: -6.8

Cc1nc(SCC(N)=O)c2c(=O)n(C)c(=O)n(C)c2n1
- Sa helicase inh: 3
- MgrA DNA FP: .

CC(=O)O/N=C(/N)c1cnn2c(C(F)(F)F)cc(C(F)(F)F)nc12
- Sa helicase inh: -2
- MgrA DNA FP: .

# More results follow:
Molecule	Sa helicase inh	MgrA DNA FP
CC(C)Cn1c(=S)[nH]c2scc(-c3cccs3)c2c1=O	9	.
Cc1ccc(-c2[nH]ncc2CNCc2ccccc2)cc1C	-5	-6.8
COc1ccc(-c2nc(N)sc2C)cc1	-6&10	.
CC1N=C2c3ccccc3N=C(SCC(=O)c3ccc(O)c(O)c3)N2C1=O (stereo not drawn)	15	6.2
CCOC(=O)c1ccc(NC(=S)Nc2ncccc2C)cc1	.	-1.6
Cc1cc(-c2csc(/N=C/N(C)C)n2)c(C)n1-c1ccc(F)cc1	10	.
O=C(O)Cn1nnc(COc2ccccc2)n1	-13	.
Cc1ccc(Nc2nc3ccccc3nc2Nc2c(C)n(C)n(-c3ccccc3)c2=O)cc1	7	.
CC(C)CNC(=O)C1CCCN1C(=O)Nc1ccccc1 (stereo not drawn)	3	4.8
CCOC(=O)N1CCN(C(=S)Nc2ccc(Oc3ccccc3)cc2)CC1	11	1.5
Oc1c(N=Nc2ccc3c(c2)OCO3)sc2nc3ccccc3n12	6	.
CC(CC(=O)O)CC(=O)Nc1cccc(C(=O)O)c1 (stereo not drawn)	14	0.4
O=C(O)Cn1ncn2c(c(-n3cccc3)c3c4c(sc32)CCCC4)c1=O	3	.
Cc1onc(-c2ccccc2Cl)c1NC(=O)Nc1cccc(C(F)(F)F)c1	.	0.4
COc1ccccc1C(=O)N1CCCc2cc(C)ccc21	6	1.5
CCOc1ccc(NC(=O)CSC2CCCCC2)cc1	10	.
Cc1c(/C=C(\C#N)C(=O)Nc2ccccc2F)cc(C#N)n1C	4	.

# High-throughput results deposited in PubChem BioAssay by ICCB-Longwood Screening Facility, Harvard Medical School.
